# Ba CapD inh = blocks the Bacillus anthracis CapD enzyme. 0.23% of 140,000 active. AID 492967. purified CapD enzyme, fluorescence intensity read-out; stronger effect = lower value; some hits fall short of the stated cut. z-score (no concentration beside the values);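 active means z-score under -4 in either of two replicates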;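 further: stock transfer was 100 nL into about 40 µL; score is relative to mean and spread of the plate; one replicate is shown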
# AID504770 = E. coli YBA685 growth inhibition, screen for V. cholerae RctB inhibitors; E. coli YBA685 rctB-dependent plasmid, OD600 growth, 3 h; stronger effect = lower value; z-score (no concentration beside the values); 0.27% of 130,000 active;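 active means z-score under -2 on both plates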;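 further: wells of about 30 µL received 100 nL stock; score is relative to mean and SD of the test wells; the first replicate is given; strong numbers were not always called active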
# Active calls of the source: *; · = no result given.
SMILES,Ba CapD inh,AID504770
CCc1ccccc1NC(=O)C1CC(=O)N(C2CCCCC2)C1 (stereo not given),-0.3,-0.85
O=c1c2ccccc2c2nc3c(c(-c4ccccc4I)c12)c(=O)c1ccccc13,-0.17,·
Cc1ccc(N(Sc2ccc(Cl)cc2)C2C=CS(=O)(=O)C2)cc1 (stereo not given),-0.34,2.3
CCn1c(CC(=O)Nc2ccccc2)nnc1SCc1nc2ccccc2c(=O)[nH]1,·,-0.75
O=C(CSc1ccccc1C(=O)NCC1CCCO1)Nc1ccc2c(c1)OCO2 (stereo not given),·,1.5
Cc1ccc(-c2nnn(CC(=O)N3N=C4/C(=C/c5ccco5)CCCC4C3c3ccco3)n2)cc1 (stereo not given),·,-0.7
CCN(CC)c1ccc(/C=C2\C(=O)NC(=O)N(c3ccc(OC)cc3)C2=O)c(OC)c1,0.42,·
O=C(C[n+]1ccccc1)c1ccc(Cl)cc1Cl,-0.42,·
O=C(Cc1ccccc1)N/N=C/C=C/c1ccco1,-2.4,-0.25
CCCc1nc(N)ncc1C(=O)OCC,0.14,·
CCOC(=O)C1=NOC2C(=O)N(c3cccc(C(F)(F)F)c3)C(=O)C12 (stereo not given),-0.095,·
CN(CC1CCCO1)S(=O)(=O)c1ccc(C(=O)Nc2ccc3c(c2)C(=O)NC3=O)cc1 (stereo not given),·,0.95
N#CCc1c(C#N)c(N)nc(NNC(=O)c2ccc(Br)cc2)c1C#N,·,0.6
CN(c1ccc(C(=O)N2CCCCC2)cc1)S(C)(=O)=O,·,0.85
O=C(CN1CCCCCC1)N1c2ccccc2Sc2ccc(Cl)cc21,-0.07,·
COc1ccc(NC(=S)NCCCN2CCN(C3CCCCC3)CC2)cc1,0.1,-0.45
O=[N+]([O-])c1ccc(S(=O)(=O)c2ccccc2)cc1O,-1.3,·
CNC(=O)c1c(C)nc(SCC(=O)NCc2ccc(OC)cc2)c(C#N)c1-c1ccco1,·,0.95
CC(C)N(CCC#N)S(=O)(=O)c1ccccc1,-0.11,0.3
COc1cc(Br)c(CN2CCCC(COC(=O)N3CCN(c4ccc(C)cc4C)CC3)C2)cc1OC (stereo not given),-1.3,·
O=S(=O)(c1ccc2c(c1)C(=NO)c1cc(S(=O)(=O)N3CCCCC3)ccc1-2)N1CCCCC1,2.7,·
c1coc(-c2cn3ccc4ccccc4c3n2)c1,-0.53,-0.65
O=C1c2[nH]nc(-c3ccccc3O)c2C(c2ccccc2)N1CC1CCCO1 (stereo not given),-0.54,-0.15
CC1CCc2nn(CC(=O)N3CCCC3)cc2C1 (stereo not given),0.12,1.3

# One compound at a time, from the list above. Screens in order: Ba CapD inh	AID504770
# Entry for COc1ccc(NC(=S)NCCCN2CCN(C3CCCCC3)CC2)cc1 = 0.1	-0.45
# Entry for CC(C)N(CCC#N)S(=O)(=O)c1ccccc1 = -0.11	0.3
# Entry for COc1cc(Br)c(CN2CCCC(COC(=O)N3CCN(c4ccc(C)cc4C)CC3)C2)cc1OC (stereo not given) = -1.3	·
# Entry for O=S(=O)(c1ccc2c(c1)C(=NO)c1cc(S(=O)(=O)N3CCCCC3)ccc1-2)N1CCCCC1 = 2.7	·
# Entry for CNC(=O)c1c(C)nc(SCC(=O)NCc2ccc(OC)cc2)c(C#N)c1-c1ccco1 = ·	0.95

# Next part
SMILES,Ba CapD inh,AID504770
COC(=O)c1sccc1NC(=O)CC#N,-1.2,0.85
c1ccc(-c2[nH]ncc2CNCc2ccco2)cc1,0.11,-0.7
CCCCC1CCC2(C)C3=C(CCC3)CCN2C1 (stereo not given),-0.31,-0.1
O=C(CCN1CCCCC1)c1ccc(-c2ccccc2)cc1,0.16,-0.35
COc1ccc(C(=O)N2c3ccccc3C(N(C(C)=O)c3ccccc3)CC2C)cc1 (stereo not given),-0.09,·
O=[N+]([O-])c1ccc(Oc2ccc(-c3ccccc3)cc2)nc1,0.62,·
CCC1SC2=NC(C)=C(C(=O)OC)C(c3ccccc3Br)N2C1=O (stereo not given),32,0.1
Brc1cccc(Oc2ncnc3sccc23)c1,1.4,-0.15
CCOC(=O)c1c(C)oc2ccc(N(C(=O)c3ccccc3Cl)S(=O)(=O)c3ccccc3)cc12,0.29,·
NC(=O)C1CCCN1c1cnn(Cc2ccccc2)c(=O)c1Cl (stereo not given),·,2.1
CSc1nnc(SCc2nc(-c3ccc(Cl)cc3)cs2)s1,-0.56,0.55
CN(C)c1ccc(C2Nc3ccccc3-c3nc4ccccc4n32)cc1 (stereo not given),72,-0.1
O=C(OCC(Cc1ccccc1)N(Cc1ccccc1)Cc1ccccc1)N1CCN(c2ccncc2)CC1 (stereo not given),-0.59,·
Cc1oc(C(C)(C)C)c(CO)c1C(=O)O,-0.17,-0.95
COC(=O)CN1C(c2cc(OC)c(OC)c(OC)c2)=Nc2ccc(C)cc2C1c1ccccc1 (stereo not given),0.26,·
CCc1ccc(CNCCCSc2nnnn2-c2ccccc2)cc1,0.29,0.05
COc1ccc(OC)c(NC(=O)c2coc(=O)c3ccccc23)c1,-0.52,-0.55
O=C(CNC(=O)c1ccc2c(c1)SC1=NS(=O)(=O)CCN12)Nc1cc(Cl)ccc1Cl,·,-0.05
CC(=O)OC1(c2ccccc2)CCN(C(C)(C)C)CC1C (stereo not given),-0.005,·
CCOC(=O)C1=C(N)OC(C)=C(C(=O)OC(C)(C)C)C12C(=O)Nc1ccccc12 (stereo not given),-0.11,·
CC(=O)N=C1c2ccccc2CN1c1cc(Cl)cc(Cl)c1,0.16,-0.3
COc1ccc(S(=O)Cc2c(C(=O)c3ccccc3)oc3ccccc23)cc1 (stereo not given),-1.5,·
C=CCn1c(SCC(=O)OCCCCC)nc2sc3c(c2c1=O)CC(C)(C)OC3,0.84,·
O=C(CSCc1cc(=O)n2ccsc2n1)Nc1ccccc1,0.14,-0.8
CCN(CC)S(=O)(=O)c1ccc(NC2c3ccccc3C(=O)N2Cc2ccco2)cc1 (stereo not given),-0.32,-1
CC[N+]12CCCC3CN4C(=O)CCCC4C(CCC1)C32 (stereo not given),-0.22,·
C=C(C)C(=O)Oc1ccc(N2Cc3ccccc3C2=O)cc1,-0.24,-0.2
CC(C)NC(=O)NC1CCCCNC1=O (stereo not given),0.28,-0.15
COc1cc(C2Nc3ccc(Cl)cc3C(c3ccccc3)O2)cc(OC)c1OC (stereo not given),0.11,·
Cc1ccc2c(c1)N(CC(=O)OCC(=O)NCc1ccccc1)C(=O)CO2,·,-0.1
CCOC(=O)CS(=O)c1nc2c(c(C(F)(F)F)n1)CCc1ccccc1-2 (stereo not given),-0.05,-0.05
COc1ccc(Cl)cc1N1C(=O)CSC1c1ccccc1Br (stereo not given),0.56,·
CCOC(=O)c1cc2cnccc2nc1-c1ccccc1,0.02,·
Cc1ccc(Cn2nc(C)c3cc(C(=O)O)sc32)cc1,·,0.4
CCCCCOc1ccc(N2C(=O)C3C4c5ccccc5C(C(=O)O)(c5ccccc54)C3C2=O)cc1 (stereo not given),0.035,·
CC1CCc2oc3ccc(NS(=O)(=O)c4cc(Cl)ccc4Cl)cc3c2C1 (stereo not given),-0.64,·
COC(=O)c1sccc1OC(=O)c1ccc(C(C)(C)C)cc1,0,0.45
COc1cc(C=C2C(=O)NC(=O)NC2=O)cc(OC)c1OC,0.55,·
CC(C)CC(N)C(O)C(F)(F)F (stereo not given),·,0
CCOc1ccc(C(=O)N2CCCCCC2)cc1,·,2.1
CC(NC(=O)c1cccc(C(=O)NC(C)c2ccccc2)c1)c1ccccc1 (stereo not given),-0.54,0.55
COc1c(C(=O)Nc2nnc(C3CC3)s2)csc1Cl,0.54,-0.3
CCn1c(CN2CCCCC2)nc2cc(S(=O)(=O)N(C)C)ccc21,·,0.1
C=CCOc1ccccc1CN(C(=O)c1c(C)noc1C)c1ccc2c(c1)OCCO2,·,-0.6
CCOC(=O)c1cc(C(=O)NC(C)c2ccccc2)c(C)[nH]c1=O (stereo not given),36,-0.75
Cc1cccc(CCOC(=O)N2CCC(C(=O)c3ccc(F)cc3)CC2)c1,0.56,·
COc1ccc(NC(=O)c2sc3nc(C)nc(N4CCC(C)CC4)c3c2C)cc1OC,-0.58,·
CCSc1nnc(NC(=O)CSc2nnc(CNC(=O)c3cccc([N+](=O)[O-])c3C)n2-c2ccc(F)cc2)s1,-0.46,·

# Structures shown so far that have a nitro group on carbon, in the order listed:
SMILES,Ba CapD inh,AID504770
O=[N+]([O-])c1ccc(S(=O)(=O)c2ccccc2)cc1O,-1.3,·
O=[N+]([O-])c1ccc(Oc2ccc(-c3ccccc3)cc2)nc1,0.62,·
CCSc1nnc(NC(=O)CSc2nnc(CNC(=O)c3cccc([N+](=O)[O-])c3C)n2-c2ccc(F)cc2)s1,-0.46,·

# (more compounds)
SMILES,Ba CapD inh,AID504770
CC1(c2ccccc2)CC(C)(C)N(C(=O)COc2nc3ccccc3s2)c2ccccc21 (stereo not given),-0.48,·
O=C(Nc1ccc(Br)cc1C(=O)O)c1ccc(N2C(=O)C3C4C=CC(C4)C3C2=O)cc1 (stereo not given),0.02,·
O=C(Cn1c2ccccc2c(=O)c2ccc(Cl)cc21)Nc1ccc(Cl)cc1,9.2,·
Cc1cc(Cl)ccc1OC(C)C(=O)Nc1sc2c(c1C#N)CCCCCC2 (stereo not given),-1,·
c1ccc(Cc2[nH]nc3ccccc23)cc1,·,-1.5
CCC1Oc2ccc(C)cc2N(CC(=O)N(Cc2ccc3c(c2)OCO3)CC2CCCO2)C1=O (stereo not given),·,2.4
NCc1cc2ccccc2s1,-0.86,-0.85
COc1cccc(CCN2CCC(CNS(=O)(=O)c3cc(-c4cc(C)no4)ccc3OC)CC2)c1,-0.25,0.95
NC(=O)CCN1CCC(c2nc3ccccc3s2)CC1,·,-2.4
COc1ccc(C2=NNC(=NC3CCCCC3)SC2)cc1,·,-0.35
COC(=O)Cc1nc(NCc2ccccc2OC)c2c3c(sc2n1)CCCC3,-0.4,·
C/C(CCc1ccccc1)=N/NC(=O)c1ccc(O)cc1,0.1,-0.45
Cc1cc(C)c(C(=O)O)c(CC(C)(C)C(=O)N2CCN(c3ncnc4sccc34)CC2)c1,-0.31,·
Clc1ccc(-c2[nH]c(-c3ccc(Br)cc3)nc2-c2ccccc2)cc1,49,·
CCOC(=O)c1ccc(NC(=O)c2cc3cccnc3n(C)c2=O)cc1,·,-0.3
CCCSc1nc(C2CC2)nc2c1c(=O)n(C)c(=O)n2CCC,·,1
CCOC(=O)C1CCN(C(=O)CSC2CCCCC2)CC1,0.06,-0.4
COc1ccc(/C(O)=C2\C(=N)N(c3cc([N+](=O)[O-])ccc3C)C3=C(C(=O)CCC3)C2c2ccc3c(c2)OCO3)cc1 (stereo not given),-0.75,·
COc1ccc(-c2noc(CN3CCC(Cc4ccccc4)CC3)n2)cc1,-0.005,-0.2
CC(C)CN(CC(C)C)S(=O)(=O)c1ccc2c(c1)CCCC(=O)N2,-0.99,-0.1
COc1ccc(C2=N/C(=C\c3cc(OC)c(OC)c(OC)c3)C(=O)O2)c(Br)c1,0.47,·
COC(=O)c1ccc(NC(=O)c2cccc(C(=O)Nc3ccc(C(=O)OC)cc3)c2)cc1,-0.4,0.5
CN(Cc1ccccc1Cl)C(=O)c1cnccc1C(F)(F)F,-0.32,-1.4
N#CCCn1cc(/C=C/C(=O)N2CCN(c3ncc(C(F)(F)F)cc3Cl)CC2)c2ccccc21,·,-0.7
COC(=O)c1c(C)oc(C)c1S(=O)(=O)NC(C)(C)C,0.47,-0.2
N#Cc1ccc(N2CCN(C(=O)C34CC5CC(CC(C5)C3)C4)CC2)c(F)c1,0.44,-0.6
O=C(CCc1ccc(C(F)(F)F)cc1)c1cc(F)ccc1OCc1ccccc1,0.59,·
O=c1c2c3c(sc2ncn1Cc1ccccc1F)CCCC3,-0.18,·
CCOC(=O)C1=C(C)N=c2s/c(=C/c3ccc(N4CCOCC4)o3)c(=O)n2C1c1ccc2c(c1)OCO2 (stereo not given),-0.33,·
COc1cc(OC)nc(Oc2ccccc2-c2ccnc(C)n2)n1,-0.52,·
CCC(Sc1nncn2c1cc1occc12)C(=O)Nc1ccc(OC)c(Cl)c1 (stereo not given),-1.7,2.1
Cn1c(O)c(C=NCc2ccc3c(c2)OCO3)c(=O)[nH]c1=S,-0.39,-1.2
ON/C=N/c1nnc(Cc2ccc(F)cc2)s1,-0.68,-0.35
CCc1ccc(NS(=O)(=O)c2ccc3c(c2)SC(C)C(=O)N3)cc1 (stereo not given),-0.15,1.1
COc1ccc(C2(C(=O)Nc3ccc(C)cc3)CCCC2)cc1OC,-0.42,-0.4
CSc1nc(N)c2ccccc2n1,44,1.6

# For convenience, 4 of the compounds above.
SMILES,Ba CapD inh,AID504770
CCOC(=O)C1=C(C)N=c2s/c(=C/c3ccc(N4CCOCC4)o3)c(=O)n2C1c1ccc2c(c1)OCO2 (stereo not given),-0.33,·
COc1cc(OC)nc(Oc2ccccc2-c2ccnc(C)n2)n1,-0.52,·
CCC(Sc1nncn2c1cc1occc12)C(=O)Nc1ccc(OC)c(Cl)c1 (stereo not given),-1.7,2.1
Cn1c(O)c(C=NCc2ccc3c(c2)OCO3)c(=O)[nH]c1=S,-0.39,-1.2

# (cont.)
SMILES,Ba CapD inh,AID504770
CCOC(=O)C1C(c2ccc(F)cc2)NC(=S)NC1(O)C(F)(F)F (stereo not given),0.01,·
CCOc1ccc(N2C(=O)/C(=C\c3cccs3)S(=O)(=O)C2c2cccc([N+](=O)[O-])c2)cc1 (stereo not given),-0.77,·
CSc1ncc(C(=O)NNC(=O)OCCc2c(C)cc(C)cc2C)n1C,0.49,·
CCC1(C)Cc2ccccc2-c2nc3n(c(=O)c21)CC(O)CS3 (stereo not given),3,-0.2
COC(=O)c1cccc(CSc2nnc(-c3ccccc3OC)n2N)c1,·,-0.05
CC1=CC(C)C2COC(c3ccccc3O)C1C2 (stereo not given),-0.56,·
CC1(C)CC2CC(C)(CN2C(=O)CSc2ncnc3ccccc23)C1 (stereo not given),0.66,1.1

# Assay outcomes: PubChem BioAssay, ICCB-Longwood Screening Facility, Harvard Medical School
